# RanGTP-Impb inh – inhibitors of RanGTP-importin-beta interaction, primary screen, biochemical, FRET, CFP-Ran, YFP-importin-beta, homogeneous; 1.1% of 300,000 active; cell-free CFP-Ran/YFP-importin-beta FRET ratio; inhibition, % (test concentration not listed);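 active = most replicates above 15%; inconclusive = exactly half above 15%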;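 note: 0% = DMSO wells and 100% = Ran loaded with GDP instead of GTP; wells of about 40 µL received 100 nL stock; the first replicate is given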
# E coli growth – E. coli growth inhibition, primary screen, OD600 | 0.21% of 330,000 active | Escherichia coli growth, 23 h; hits give low values | AID 1053175, 2014 | OD600 absorbance (no concentration beside the values);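 active = OD600 absorbance below the run mean of sample wells minus 3.6 SD, in any replicate, cut at about 0.56 in these data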;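 note: stock transfer was 300 nL into about 60 µL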
# UCH37 inh – inhibitors of human UCH37 deubiquitinase, primary screen, biochemical, Ub-AMC cleavage, fluorescence; inhibition, % (test concentration not listed); purified proteasome/UCH37; 0.33% of 330,000 active; Ubiquitin carboxyl-terminal hydrolase isozyme L5 (Homo sapiens), Q9Y5K5;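 active = mean of two replicates above 20%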;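 note: 0% = compound-free wells with enzyme and 100% = wells lacking proteasome; stock transfer was 100 nL into about 20 µL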
#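 Signal – fluorescence, ex 355 nm, em 460 nm · System – Proteasome-bound UCH37 · Input – 0.15 nM proteasome as dispensed · Timing – 30 min preincubation with enzyme, 25 min cleavage at room temperature · Read-out basis – percent inhibition of cleavage signal versus uninhibited and no-proteasome wells · Medium – Tris-HCl pH 7.4 with ATP-MgCl2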
# FGF22 binding – binders of human FGF22 protein, primary screen, FGF22 synaptogenesis inhibitor project, biophysical, thermal shift, single point; recombinant FGF22 thermal shift, SYPRO orange fluorescence; percent of sucrose octasulfate shift, DMSO zero; Fibroblast growth factor 22 (Homo sapiens), Q9HCT0; calls only at 9.99 µM; 1.5% of 340,000 active;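 active = melting point raised past a set limit in the mean and every replicate; inconclusive = no clear call; three in four hits are not shown here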
# HNF4A DNA FP – change in binding of human HNF4A to DNA, primary screen, biochemical, fluorescence polarization, FITC-DNA. 0.3% of 360,000 active. 1 h. activity change, % at 10 µM; in the data active = activity change above about 30%, passing the limit was not always enough;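 note: controls were the assay level and a saturating level of protein; the project sought stronger binding though the title names inhibitors; some compounds called inactive have numbers as strong as hits; positive values seem to mean higher polarization but the record does not say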
# Target sequence (P41235 whole entry, looked up): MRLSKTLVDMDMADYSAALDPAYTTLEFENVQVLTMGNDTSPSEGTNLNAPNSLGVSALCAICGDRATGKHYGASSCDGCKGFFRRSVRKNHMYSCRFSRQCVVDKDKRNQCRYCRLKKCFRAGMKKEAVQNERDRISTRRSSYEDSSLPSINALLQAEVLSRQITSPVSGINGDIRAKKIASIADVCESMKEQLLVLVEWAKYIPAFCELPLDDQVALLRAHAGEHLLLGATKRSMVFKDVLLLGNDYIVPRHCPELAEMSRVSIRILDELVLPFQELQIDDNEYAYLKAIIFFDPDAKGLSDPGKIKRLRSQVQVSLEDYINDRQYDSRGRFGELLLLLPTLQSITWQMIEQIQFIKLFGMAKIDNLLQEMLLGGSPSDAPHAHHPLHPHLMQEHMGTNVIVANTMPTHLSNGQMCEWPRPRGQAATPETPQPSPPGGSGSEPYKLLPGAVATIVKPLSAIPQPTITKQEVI
# MLL AF4-AF9 inh – inhibitors of AF4 peptide binding to AF9, primary screen, biochemical, AlphaScreen, biotin-AF4 peptide, FLAG-AF9, single point; Protein AF-9 (Homo sapiens), P42568; inhibition, % at 10 µM; 0.47% of 350,000 active;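 active = every replicate reaching a set inhibition limit, whatever the replicate mean, cut at about 25% in these data; inconclusive = mean inhibition reaches that limit but some replicates miss it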;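 note: 0% = plate neutral control median and 100% = total signal loss; the record names both 10 and 1 µM as test concentration; the first replicate is given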
# Target sequence (P42568 whole entry, looked up): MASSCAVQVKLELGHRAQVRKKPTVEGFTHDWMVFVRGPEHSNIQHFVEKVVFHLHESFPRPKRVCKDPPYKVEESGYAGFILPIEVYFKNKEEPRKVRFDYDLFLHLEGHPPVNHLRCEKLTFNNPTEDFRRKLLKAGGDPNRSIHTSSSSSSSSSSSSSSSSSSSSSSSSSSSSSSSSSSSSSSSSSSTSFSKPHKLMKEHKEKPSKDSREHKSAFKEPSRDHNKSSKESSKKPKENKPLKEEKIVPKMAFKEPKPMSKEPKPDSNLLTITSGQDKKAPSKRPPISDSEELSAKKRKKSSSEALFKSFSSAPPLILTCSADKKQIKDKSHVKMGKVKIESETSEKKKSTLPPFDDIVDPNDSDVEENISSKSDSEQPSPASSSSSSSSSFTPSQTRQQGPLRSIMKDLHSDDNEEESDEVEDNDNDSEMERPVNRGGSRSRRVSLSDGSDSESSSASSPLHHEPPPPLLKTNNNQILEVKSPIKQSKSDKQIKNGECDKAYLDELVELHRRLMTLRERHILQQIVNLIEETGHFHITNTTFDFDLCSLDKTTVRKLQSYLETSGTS
# Vif TR-FRET – inhibitors of Vif binding to APOBEC3G peptide, primary screen, biochemical, TR-FRET, GST-Vif 1-94, biotin-A3G peptide, dose response retest (AID 1117319). Virion infectivity factor (Human immunodeficiency virus type 1 group M subtype B (isolate …. TR-FRET GST-Vif / biotin-A3G peptide binding; higher % means a stronger effect; test concentration not given here; strong numbers were not always called active. one-dose inhibition, %; IC50 in µM for titrated hits. 0.57% of 260,000 active;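 active = above the screen mean plus three standard deviations and confirmed in dose response; inconclusive = results disagree or hit not tested in dose response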;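 note: Vif residues 1-94 fused to GST binding biotinylated APOBEC3G peptide 110-148; 0% = full assay without inhibitor and 100% = GST in place of GST-Vif; retest series ran down from 100 µM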
# Numbers without * were called inactive; i = inactive; ? = inconclusive; . = not tested or not shown; + = active, no number; & = joins results of further samples.
SMILES,RanGTP-Impb inh,E coli growth,UCH37 inh,FGF22 binding,HNF4A DNA FP,MLL AF4-AF9 inh,Vif TR-FRET
C=CCn1c(SCC(N)=O)nnc1-c1cc(Br)ccc1O,4.4,0.65,0.8,.,-4.4,.,8%
CCCc1cc(C(=O)Nc2nccs2)cs1,-0.6,0.65,0.2,.,3.7,.,1%
CC(c1ccccn1)N(CCN(C)C)C(=S)Nc1ccccc1F (stereo unspecified),3.3,0.72,5.1,i,-2.4,-31,-1%
O=C(c1cccc(-c2nnc(-c3ccccc3)o2)c1)N1CCCCCC1,1.3,0.69,1.8,.,0.1,.,5%
CC(C)CCNC(=O)NC(=O)COc1ncnc2sccc12,?,0.71,-0.6,.,6.2,.,10%
Cc1ccc(-c2nnn(CCC(=O)N3CCCCC3C)n2)cc1 (stereo unspecified),-0.2,0.67,2.8,.,0.1,.,0%
CCCC(CCC(=O)Nc1ccc(S(N)(=O)=O)cc1)C(=O)O (stereo unspecified),-3.6,0.7,1.6,.,-2.1,.,3%
COc1ccc(NC(=O)CN2C(=O)C(C)SC(C)C2=O)c(OC)c1 (stereo unspecified),-3.2,0.64,1.5,i,0.6,-3.4,.
CCc1ccc(/C=C2/Sc3ccccc3N(CC(=O)NCCCN3CCOCC3)C2=O)cc1,4.5,0.7,5.4,i,1.9,11,.
Cc1ccc(C2=NNC(=Nc3ccc(F)cc3)SC2)cc1,.,0.71,0.4,i,0.3,4.1,.
Cc1ccc(-c2n[nH]c(=S)n2/N=C/c2ccncc2)cc1,4.5,.,.,i,-2.5,-4.5,-3%
N#Cc1c(NC(=O)CSc2nnc(-c3ccccc3)o2)sc2c1CCCC2,-3.2,0.67,0.0,i,1.0,-3.4,5%
CCCC12CN3CC(CCC)(CN(C1)C3c1ccco1)C2=O (stereo unspecified),3.1,0.73,0.7,i,-0.9,-47,7%
Cc1cccc(-c2nc3ccccc3c(=O)n2NC(=S)N(C)C)c1,-2.5,0.67,1.9,i,-0.6,-19,.
COc1ccccc1NC(=O)COc1ccc(C(F)(F)F)cc1[N+](=O)[O-],5.9,.,.,.,-0.5,.,-2%
CC1CCCC(NC(=O)COC(=O)CCC2CCCC2)C1C (stereo unspecified),-3.0,0.68,3.9,.,0.3,.,-2%
Cc1noc(C)c1C(=O)Nc1c(F)cc(F)cc1Br,?,0.73,-3.9,i,7.1,-21,-4%
CN(C)CCCn1c(=O)n(Cc2ccccc2)c(=O)c2c3c(sc21)CCCCC3,1.6,0.62,4.0,+,2.7,5.8,0%
COc1ccccc1-n1nnnc1SCC(=O)N(C)C1CCS(=O)(=O)C1 (stereo unspecified),.,0.65,2.2,i,1.6,0.7,5%
CCOc1ccc(-n2nc(C(=O)NCCOC)c3ccccc3c2=O)cc1,.,0.76,4.6,.,1.0,.,1%
CCOc1ccc(S(=O)(=O)Nc2nc3ccccc3nc2-n2ccc(=NC(=O)c3ccccc3C)cc2)cc1,-9.6,0.67,3.7,i,27,2.7,-10%
CC(=O)NC1(c2cccc(F)c2)CCN(C(=O)Nc2ccc(C#N)cc2)CC1,-2.7,0.73,3.7,.,0.3,.,2%
C=CCOC(=O)C1=C[C@@H](c2ccc(Br)cc2)C[C@@H](OCCCCO)O1,1.0,.,3.7,i,0.3,-1.7,.
COc1ccccc1C(=O)Nc1ccnn1C1CCN(CCCc2ccccc2)CC1,-1.7,0.68,4.7,i,-2.4,1.0,.
CCNc1c2c(nc3ccccc13)CC(C)(C)CC2=O,0.3,0.66,5.7,.,0.4,.,7%

# Brought forward from above: two entries, followed by the next part.
SMILES,RanGTP-Impb inh,E coli growth,UCH37 inh,FGF22 binding,HNF4A DNA FP,MLL AF4-AF9 inh,Vif TR-FRET
COc1ccccc1C(=O)Nc1ccnn1C1CCN(CCCc2ccccc2)CC1,-1.7,0.68,4.7,i,-2.4,1.0,.
CCNc1c2c(nc3ccccc13)CC(C)(C)CC2=O,0.3,0.66,5.7,.,0.4,.,7%
CN(C)CCCNC(=O)C(=O)NCC1CCCO1 (stereo unspecified),1.0,0.71,3.8,i,-4.2,-0.8,0%
CCCSc1nc(SCC(=O)NCc2ccccc2)c2c3c(sc2n1)COC(C)(CC)C3 (stereo unspecified),0.2,0.71,-2.7,.,-2.7,.,-32%
Nc1ncnc2c1ncn2[C@@H]1O[C@H](CNCc2ccccc2OCC(=O)N2CCCCC2)[C@@H](O)[C@H]1O,.,0.71,1.9,i,2.4,-0.2,0%
COc1ccc(C(=O)NC2CCN(C(=S)Nc3ccccc3)CC2)cc1,-8.1,0.68,0.3,i,1.5,-0.1,.
Cc1ccc(S(=O)(=O)/N=C(/Nc2nc(C)cc(C)n2)N2CCOCC2)cc1,2.9,.,.,.,1.2,.,1%
CC(C)C(C)NC(=O)CN1C(=O)NC2(CCCc3ccccc32)C1=O (stereo unspecified),1.5,0.69,5.2,i,1.5,0.9,-12%
O=C(CN1C(=O)CC(c2ccco2)Sc2ccccc21)Nc1ccc2c(c1)OCCO2 (stereo unspecified),4.1,0.67,0.3,.,1.0,.,-1%&6%
Cn1cccc1C(=O)NCc1ccccn1,.,0.66,-0.9,i,1.7,7.8,5%
CC1CCCN(C(=O)CNC(=O)c2ccco2)C1 (stereo unspecified),3.4,0.67,0.5,i,1.6,0.9,5%
O=C(O)C1=C(Nc2ccccc2)OCC1=O,-3.2,0.69,-0.5,i,-1.8,-5.4,.
O=C(OCc1nnc(-c2ccccc2)o1)c1ccc2ccccc2n1,-1.8,0.74,-2.6,.,2.3,.,1%
COc1ccc(NS(=O)(=O)c2cccc(C(=O)NNC(=O)CNC(=O)c3ccccc3Cl)c2)cc1,.,0.71,-2.3,i,-0.8,-5.2,.
COc1ccc2c(c1)N(C)/C(=C1/SC(=S)N(NC(C)=O)C1=O)S2,8.4,0.67,5.0,i,0.7,-5.1,-10%
O=C(CSc1ccc2nnc(-c3ccc(F)cc3)n2n1)N1CCOCC1,-2.6,0.72,-16,i,-2.2,-0.2,.
Cn1c(=O)c2c(-c3ccccc3)n(-c3cc([N+](=O)[O-])ccc3O)cc2n(C)c1=O,.,.,.,+,-6.8,-0.5,-9%
COc1cc(NC2c3ccccc3C(=O)N2Cc2ccccc2)cc(OC)c1OC (stereo unspecified),3.6,0.68,1.5,i,-1.4,-3.2,4%
CCN1CCN(/C=N/c2nc3c(s2)CCCC3)CC1,0.8,.,.,i,-0.2,1.3,5%
CCOc1ccc2[nH]c(=O)c(CN(Cc3cccs3)Cc3nnnn3C(C)(C)C)cc2c1,-0.1,0.68,-17,i,0.3,9.3,9%
O=C1CC(C2CCCO2)C(=O)N1c1cccc(Cl)c1 (stereo unspecified),1.8,0.67,0.6,.,-9.0,.,-3%
Cc1cc(C)c(NC(=O)CSc2nnc(CNC(=O)c3ccccc3F)o2)c(C)c1,7.1,0.66,5.4,i,2.5,-14,.
Cc1ccc(NC(=O)CSc2nnc(-c3cccnc3)s2)cc1,3.0,0.69,0.7,.,-1.8,.,.
Cc1cc2oc(C(=O)NC3CCS(=O)(=O)C3)cc(=O)c2cc1C (stereo unspecified),-3.6,0.72,-8.6,i,1.4,-3.1,3%
CCOC(=O)N1CCN(C(=O)CN(c2ccc(C)c(C)c2)S(=O)(=O)c2ccccc2)CC1,?,0.72,6.4,.,-4.0,.,17%
Cc1cccc(C)c1NC(=O)COC(=O)[C@@H]1CCCN1C(=O)c1cccs1,.,0.71,4.4,i,-1.1,-9.6,0%
Cc1ccc(C(=O)Nc2cc(S(=O)(=O)N3CCOCC3)ccc2N2CCCC2)cc1,.,.,.,i,-3.3,-7.2,.

# Arranged by the number under HNF4A DNA FP (descending): six of the compounds above.
compound	HNF4A DNA FP
Nc1ncnc2c1ncn2[C@@H]1O[C@H](CNCc2ccccc2OCC(=O)N2CCCCC2)[C@@H](O)[C@H]1O	2.4
Cn1cccc1C(=O)NCc1ccccn1	1.7
Cc1ccc(S(=O)(=O)/N=C(/Nc2nc(C)cc(C)n2)N2CCOCC2)cc1	1.2
COc1ccc(NS(=O)(=O)c2cccc(C(=O)NNC(=O)CNC(=O)c3ccccc3Cl)c2)cc1	-0.8
O=C(CSc1ccc2nnc(-c3ccc(F)cc3)n2n1)N1CCOCC1	-2.2
CCCSc1nc(SCC(=O)NCc2ccccc2)c2c3c(sc2n1)COC(C)(CC)C3 (stereo unspecified)	-2.7

# More results:
SMILES,RanGTP-Impb inh,E coli growth,UCH37 inh,FGF22 binding,HNF4A DNA FP,MLL AF4-AF9 inh,Vif TR-FRET
CC(OC(=O)c1ccccc1)C(=O)NCCC1=CCCCC1 (stereo unspecified),-2.0,0.76,4.5,+,-0.9,-0.2,8%
Cc1c(C#N)c2ccccc2n1CC(=O)NCCc1c[nH]c2ccccc12,2.5,0.72,6.3,i,-0.9,5.9,-7%
N=c1ncn(CC(O)CN2CCOCC2)c2nc(N3CCOCC3)[nH]c12 (stereo unspecified),0.6,0.7,1.8,.,-1.8,.,3%&0%
O=C(Cn1nc(-c2ccccc2)ccc1=O)Nc1ccc(-n2cnnn2)cc1,0.6,0.69,1.7,i,-3.6,-1.0,.
CC(NCC(=O)Nc1ccccc1C(=O)NC1CC1)c1ccc(Cl)cc1 (stereo unspecified),.,.,.,i,3.0,-0.3,.
Cc1ccc(S(=O)(=O)N(C)C)cc1NC(=O)C(C)N(C)CCOc1ccc(Cl)cc1 (stereo unspecified),-5.5,0.65,-0.2,i,1.9,0.0,.
COc1cc(C)ccc1OCC(=O)OCC(=O)c1cc(C)n(CC2CCCO2)c1C (stereo unspecified),.,0.69,3.9,i,0.4,2.9,29%
COC(=O)c1ccc(NC(=O)C2C3C=CC(O3)C2C(=O)O)cc1 (stereo unspecified),3.0,0.71,1.1,.,3.2,.,-3%
Cc1cccc(OCC(=O)Nc2ccccc2C(=O)N2CCOCC2)c1,8.9,0.74,-4.6,.,1.5,.,8%
NS(=O)(=O)c1ccc(NC(=O)/C=C/c2ccc3c(c2)OCO3)cc1,2.0,0.66,-38,i,1.0,-0.5,-3%
CCOc1ccc(C(=O)NCCc2ccccc2)cc1,-5.0,0.66,1.1,i,4.9,-11,5%
CCc1ccc(N=C2NC(=O)/C(=C/c3cc(Br)c(OCC(=O)O)c(OC)c3)S2)cc1,-0.4,.,.,.,-24,0.1,14%
Cc1c(C(=O)Nc2ccccn2)oc2c(Cl)cccc12,-2.2,0.71,-1.2,i,-2.2,5.6,-5%
CCC(C)(C)NC(=O)C(c1cccn1C)N(Cc1ccc(C)cc1)C(=O)Cn1nnc2ccccc21 (stereo unspecified),-3.0,0.74,2.9,.,6.3,.,8%
NNC(=O)c1cccc(S(=O)(=O)Nc2cc(Cl)ccc2Cl)c1,-3.7,0.64,2.7,i,-4.2,-9.0,8%
O=C(Nc1ccc(S(=O)(=O)N2CCOCC2)cc1)C1CCCCC1,-2.4,0.68,0.3,.,1.7,.,-1%
COc1cc(C2C(C(C)=O)=C(O)C(=O)N2CCN(C)C)ccc1O (stereo unspecified),-5.6,0.69,4.6,.,4.2,.,5%
COc1cccc(C(=O)NCc2ccco2)c1OC,-0.3,0.67,4.2,i,-1.3,-18,.
CCCOC(=O)C1=C(C)NC(=O)NC1c1cc2c(cc1Br)OCO2 (stereo unspecified),0.2,0.66,4.9,i,-1.1,-0.6,.
CC(C)C(=O)N1CCN(c2ccccc2NC(=O)c2ccc(C#N)cc2F)CC1,?,0.69,-1.6,i,-4.4,1.4,4%
Cc1cc2ccc(C)c(C)c2nc1SCC#N,4.0,0.64,3.4,.,2.4,.,-2%

# Assay outcomes (PubChem)

# These rows are one share of the data (hit frequency here may not be typical).
